From PubChem
HSD17B inh: blocks hydroxysteroid 17-beta dehydrogenase activity; 75,000 compounds, 7.6% hits; Q99714; AID 893; recombinant HSD17B10, NADH fluorescence kinetic; many of its hits are not listed in these tables; Potency, µM (highest dose often 57.1 µM), inactives show at the highest dose activity change, negative = inhibition, hits mostly inhibitors; active = well fitted inhibition curve with a large enough effect; inconclusive = small, poorly fitted or top-dose-only effect; inactive = no such curve, though single readings can be large or run the other way;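 also: the protocol describes HADH2 (HSD17B10) and not the HSD17B4 of the title; nearly all actives have a fitted effect of over 70% in size; most hits overshoot -100% by far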
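Enzyme plus compound, 15 min room temperature; substrate mix added (NAD+ 1 mM, beta-hydroxybutyryl-CoA 90 uM final); plates read kinetically for NADH fluorescence. HADH2 was His-tagged, E. coli-derived, 20 nM.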
Active calls of the source: *; ? = inconclusive; & = joins results of further samples; [ ] = dose if it differs, or a comment. % is scaled to controls: 0 for no effect and ±100 for the full control effect; potency is read from the fitted curve at half-maximal effect. A portion of the library; count on the stated rates, not on these rows.

SMILES	HSD17B inh
CCc1ccc2oc(=O)cc(CN3CCCCC3C)c2c1 (stereo unspecified)	-7%
CCOC(=O)N/N=C1/C[C@@H](O)[C@@H](O)[C@@H]2[C@@H]3C(=O)N(Cc4ccc5c(c4)OCO5)C(=O)[C@H]3CC[C@H]12	6%[11.4 µM]
CCOC(=O)C1=C(C)N(C)C(C)=C(C(=O)OCC)C1c1ccncc1	4%
N#CCSc1nnc(C2CCCCC2)n1Cc1ccccc1	9%
CC(=O)c1ccc(NC(=O)c2cc(CC(C)C)on2)cc1	8%
C=CCNC(=O)CN1C2CCCC1CC(NC(=O)c1ccccc1C)C2 (stereo unspecified)	11%
Cc1cccc(-n2ncc3c(NCc4ccccc4)ncnc32)c1	25µM*
CC(=O)c1cccc(NS(=O)(=O)c2c(C)noc2C)c1	6%
COc1ccc(S(=O)(=O)N2CCOCC2)cc1C(C)C	15%
CCn1cnc2sc(C(=O)Nc3ccc4c(c3)OCO4)c(C)c2c1=O	9%
CC12CC(NC(=O)N1c1cccc(C(=O)NCc3ccc4c(c3)OCO4)c1)c1cc(Cl)ccc1O2 (stereo unspecified)	-1%
Cn1c(SCC(=O)N2CCN(Cc3ccccc3)CC2)nnc1-c1ccncc1	10%

Continued, starting with the last 3 of the part before.
SMILES	HSD17B inh
CCn1cnc2sc(C(=O)Nc3ccc4c(c3)OCO4)c(C)c2c1=O	9%
CC12CC(NC(=O)N1c1cccc(C(=O)NCc3ccc4c(c3)OCO4)c1)c1cc(Cl)ccc1O2 (stereo unspecified)	-1%
Cn1c(SCC(=O)N2CCN(Cc3ccccc3)CC2)nnc1-c1ccncc1	10%
O=C(O)c1ccc([N+](=O)[O-])c(P(=O)(O)O)c1	2%[11.4 µM]
CCOC(=O)C1CCCN(CC(=O)Nc2c(C(=O)OC)[nH]c3ccccc23)C1 (stereo unspecified)	?
N#Cc1cc2ccccc2nc1SCC(=O)Nc1ccccc1N1CCOCC1	5%
C=CCn1c(SCC(O)Cn2c3ccccc3c3ccccc32)nnc1-c1ccco1 (stereo unspecified)	?
CCCCNC(=O)c1nnn(-c2ccccc2)c1N	9%
COc1cc(C(=O)NCC(c2cccnc2)N2CCN(C)CC2)cc(OC)c1OC (stereo unspecified)	6%
O=S1(=O)CC(N2CCOCC2)c2ccccc21 (stereo unspecified)	4%
CCOc1cc(C(=O)NCCN2CCOCC2)cc(OCC)c1OCC	5%
CCSc1nnc2c(n1)OC(c1ccc(C(=O)O)cc1)N(C(C)=O)c1ccccc1-2 (stereo unspecified)	-14%
c1coc(CNc2nc3ccccc3n2CCN2CCOCC2)c1	5%
Nc1n[nH]c(S(=O)(=O)CCCc2ccccc2)n1	2%
CCC(=O)n1nc(NCc2ccc(OC)c(OC)c2)nc1NCc1ccc(OC)c(OC)c1	-5%
O=C(CSCCNS(=O)(=O)c1ccccc1)Nc1ccccc1	3%
Cc1noc(NS(=O)(=O)c2ccc(NC(=O)CSc3n[nH]c(-c4ccccc4)n3)cc2)c1C	7%
CC(C)c1nnc(NC(=O)c2c(O)c3cccc4c3n(c2=O)CCC4)s1	-6%
O=C(Nc1ccc(Oc2ccccc2)cc1)C1CCCO1 (stereo unspecified)	-2%
CCOCCn1c(=O)c2c(nc3n2CCN3c2ccccc2)n(C)c1=O	-9%
COc1ccc(C2c3c(oc4ccccc4c3=O)C(=O)N2CC2CCCO2)cc1 (stereo unspecified)	5%
CCc1cccc(C)c1NC(=O)C1CCCO1 (stereo unspecified)	-1%
O=C(NCc1ccccc1)N[C@@H](Cc1ccccc1)C(=O)O	-3%
Cc1ccc(S(=O)(=O)N2C(=S)SCC2(C)C)cc1	-7%
OCCN(CCO)CC(O)Cn1c2ccccc2c2ccccc21 (stereo unspecified)	-13%
CCOC(=O)c1[nH]c2ccc(OC)cc2c1NC(=O)C(C)N1CCSCC1 (stereo unspecified)	25µM*
Cc1noc(C)c1C(=O)N1CCC[C@@]2(CCN(C(=O)Nc3ccccc3)C2)C1	8%

Among those listed so far, 15 contain sulfur.
SMILES	HSD17B inh
N#CCSc1nnc(C2CCCCC2)n1Cc1ccccc1	9%
CC(=O)c1cccc(NS(=O)(=O)c2c(C)noc2C)c1	6%
COc1ccc(S(=O)(=O)N2CCOCC2)cc1C(C)C	15%
CCn1cnc2sc(C(=O)Nc3ccc4c(c3)OCO4)c(C)c2c1=O	9%
Cn1c(SCC(=O)N2CCN(Cc3ccccc3)CC2)nnc1-c1ccncc1	10%
N#Cc1cc2ccccc2nc1SCC(=O)Nc1ccccc1N1CCOCC1	5%
C=CCn1c(SCC(O)Cn2c3ccccc3c3ccccc32)nnc1-c1ccco1 (stereo unspecified)	?
O=S1(=O)CC(N2CCOCC2)c2ccccc21 (stereo unspecified)	4%
CCSc1nnc2c(n1)OC(c1ccc(C(=O)O)cc1)N(C(C)=O)c1ccccc1-2 (stereo unspecified)	-14%
Nc1n[nH]c(S(=O)(=O)CCCc2ccccc2)n1	2%
O=C(CSCCNS(=O)(=O)c1ccccc1)Nc1ccccc1	3%
Cc1noc(NS(=O)(=O)c2ccc(NC(=O)CSc3n[nH]c(-c4ccccc4)n3)cc2)c1C	7%
CC(C)c1nnc(NC(=O)c2c(O)c3cccc4c3n(c2=O)CCC4)s1	-6%
Cc1ccc(S(=O)(=O)N2C(=S)SCC2(C)C)cc1	-7%
CCOC(=O)c1[nH]c2ccc(OC)cc2c1NC(=O)C(C)N1CCSCC1 (stereo unspecified)	25µM*

Next records follow:
SMILES	HSD17B inh
Cc1nc(NC2CCCCC2)c2nc(-c3ccccc3)n(CCCN(C)C)c2n1	25µM*
CN(C)C(=O)c1ccc(-c2cncnc2N2CCNCC2)cc1	-1%
COC(=O)[C@@H](NC(=O)Nc1ccc(OC(F)(F)F)cc1)C(C)C	4%
O=C(Nc1cccc(F)c1)c1ccc(S(=O)(=O)NCC2CCCO2)cc1 (stereo unspecified)	-2%
COc1ccc(CC(=O)NCc2nnc(SCC(=O)Nc3nccs3)n2-c2ccccc2)cc1	1%
COc1ccccc1N1CC(O)=C(c2nc3ccccc3c(=O)[nH]2)C1=N	32µM*
O=S(=O)(c1ccc(S(=O)(=O)N(Cc2ccco2)Cc2ccccc2Cl)cc1)N1CCCC1	-2%
CN1CCc2nc(NC(=O)c3cccc(S(=O)(=O)N4CCc5ccccc54)c3)sc2C1	?
Cc1cc(=O)[nH]c2c1c(C)nn2C1CCCC1	5%
O=C(O)[C@@H](Br)[C@@H](Br)c1ccccc1[N+](=O)[O-]	3%[11.4 µM]
Cn1cnnc1SCc1ccc(F)c2ccccc12	8%
COC(=O)[C@H]1C[C@@H]1[C@H](NC(=O)c1cc(C)on1)c1ccccc1	4%
O=C(CS(=O)(=O)Cc1ccccc1)Nc1nnc(C2CCCCC2)s1	-2%
CC(C)CCOP(=O)(c1ccc(N(C)C)cc1)C(O)c1ccccn1 (stereo unspecified)	13%
COc1ccc(S(=O)(=O)N2CCCN(S(=O)(=O)c3ccc(OC)cc3C)CC2)c(C)c1	-7%
O=C(Nc1cccnc1)c1ccc(Cl)c(S(=O)(=O)N2CCCCCC2)c1	-3%
CC(=O)c1c(COC(=O)c2ccncc2)nc2ccccc2[n+]1[O-]	-4%
O=c1[nH]c(NCCCO)nc2c1C1(CCCC1)Cc1ccccc1-2	3.2µM*
COc1cc(N)c(Cl)cc1C(=O)OCCN1CCCCC1	-3%
O=C(C1CCCCC1)N1CCN(S(=O)(=O)c2ccc(Cl)cc2)CC1	14%
CS(=O)(=O)N1CCN(C(=O)CCC2CCCC2)CC1	8%
Cc1cc2oc(C(=O)NCc3ccc4c(c3)OCO4)c(C)c2cc1C	-9%
CCOC(=O)c1cc(C)n(CCc2ccccc2)c1C	2%
COc1cccc(Cn2c(=O)c(-c3cn(C)c4ccccc34)nc3cnc(N4CCNCC4)nc32)c1	-1%
Cn1c(=O)c2c(nc(NCCCO)n2Cc2cccc(Br)c2)n(C)c1=O	5%
CC1(C)Cc2c(sc3nc(SCC(=O)O)[nH]c(=O)c23)CO1	?
Cc1ccc(S(=O)(=O)NCc2nc3ccccc3c(=O)n2N)cc1	-1%
Nc1nc(SCc2nc3scc(-c4cccs4)c3c(=O)[nH]2)n[nH]1	-18%
CCOc1ncccc1C(=O)OCC(=O)N1CCN(S(=O)(=O)c2ccc(Cl)cc2)CC1	0%
COc1ccc2c(c1)N(C)C(=O)CC(c1ccccc1)=N2	-2%
CC12CN3CC(C)(CN(C1)C3c1ccc3c(c1)OCO3)C2=O (stereo unspecified)	-3%
CC(NC(=O)C1CCN(S(=O)(=O)N2CCCCCC2)CC1)c1ccccc1 (stereo unspecified)	-5%
CCn1c(COc2ccccc2C)nnc1SCC(=O)O	10%
CC(=O)Nc1ccc(OCC(O)CN2CCN(c3cccc(Cl)c3)CC2)cc1 (stereo unspecified)	14%
c1ccc(Cc2nnc3sc(-c4cccnc4)nn23)cc1	3%
COC(=O)C1=C(N)OC2=C(C(=O)CC(C)(C)C2)C1c1cccnc1 (stereo unspecified)	9%
COc1ccc(-c2nc(CN3CCC(C(=O)N4CCc5ccccc54)CC3)c(C)o2)cc1OC	-3%
Cc1ccc(NS(=O)(=O)c2cccc(C(=O)n3ncc(C#N)c3N)c2)c(C)c1	5%
CCCn1c(C)nc2c(N3CCOCC3)nc(C)nc21	-6%
Clc1ccc(-n2nnnc2-c2ccccc2)cc1Cl	-3%
c1coc(CN(Cc2cccs2)Cc2nnnn2C2CCCCC2)c1	-14%
O=C(Nc1ccc2c(c1)OCO2)c1cccc(Cl)c1	-17%
CCOC(=O)c1c(C)[nH]c(C(=O)CSc2nnnn2-c2ccccc2)c1C	-5%
CCCN=Cc1sc2ccc(OCC)cc2c1O	-17%
O=c1c(-c2ccc(F)cc2)nc2cnc(Oc3cccc(Cl)c3)nc2n1C1CC1	-28%
Cc1c(C(=O)OCC2CCCO2)[nH]c2c1C(=O)CC(c1ccco1)C2 (stereo unspecified)	3%
COc1ccc2c(c1)c(C(O)CN1CCC3(CC1)OCCO3)c(C)n2C (stereo unspecified)	?
O=c1[nH]c2ccc(Cl)cc2c(-c2ccccc2)c1N1CCN(c2ccccn2)CC1	1%
NC1=NC(=O)CC(C(=O)NCc2ccccc2)S1 (stereo unspecified)	-11%
COc1cc(CN2CCC(C(=O)N3CCN(c4ccccc4F)CC3)CC2)cc(OC)c1O	-9%
CCOc1cc(C2C(C#N)=C(N)OC3CCCC(=O)C32)ccc1OCCN1CCOCC1 (stereo unspecified)	5%
O=S(=O)(NCCSc1nnc(-c2ccco2)n1-c1ccccc1)c1ccccc1	1%
COC(=O)NC(/C(C(=O)OC)=C(\C)NCc1ccccc1)c1ccco1 (stereo unspecified)	-1%[11.4 µM]
CCc1nnc(NC(=O)CCC(=O)N2CCN(Cc3cc(Cl)ccc3OC)CC2)s1	6%
Cc1occc1C(=O)N1CCN(C(=O)C2CCCO2)CC1 (stereo unspecified)	1%
Cc1cccc(NC(=O)Cn2c(=O)n(C)c3ccccc32)c1	2%
CC(C)NC(=O)CSc1nncn1-c1ccccc1	1%
COc1ccc(-c2cc([C@H](O)[C@@H]3CCCCN3)c3ccccc3n2)cc1	4µM*
CN(C)CCCN1C(=O)c2oc3ccc(F)cc3c(=O)c2C1c1cccnc1 (stereo unspecified)	-17%
CC1=CC(C)(C)Nc2ccccc21	32µM*
The results go on:
SMILES	HSD17B inh
CC1CCC2C(=O)OC(CN=[N+]=[N-])CN2C1c1ccc(Br)cc1 (stereo unspecified)	2%&-9%&8%&-2%&7%&5%[11.4 µM]
Cc1ccc(-n2c(SCC(=O)N3CCOCC3)nnc2-c2cccnc2)cc1C	11%
CCCCn1c(SCC(=O)c2ccc3c(c2)OCCO3)nnc1-c1ccoc1C	-8%
CCCCNC(=O)Cn1c(-c2ccc(OC)cc2)noc1=O	-9%
O=C(Nc1cc(C(F)(F)F)ccc1N1CCOCC1)c1n[nH]c(=O)c2ccccc12	3%
O=C(NCCC1=CCCCC1)c1cc2c(s1)CS(=O)(=O)C2	4%
Cc1cc(C)c(NC(=O)CSc2nnc(Cc3cccn3C)n2-c2ccc(F)cc2)c(C)c1	-1%
Cn1c(SCC(=O)c2ccccc2)nc2cccnc21	-14%
CCOc1ccc(C(C)(N)C(=O)O)cc1 (stereo unspecified)	1%
COc1ccc(-n2c(SCC(=O)Nc3ccc4c(c3)OCO4)nnc2C(C)N2CCCCC2)cc1 (stereo unspecified)	-7%
O=C(CN(Cc1cccs1)C(=O)CN1C(=O)COc2ccccc21)NCc1ccco1	0%
COc1ncc2nc(C)c(=O)n(-c3ccccc3)c2n1	0%
COC(=O)c1ccc(CN2C(=O)NC3(CCCCC3C)C2=O)o1 (stereo unspecified)	10%
Cc1cc(C)n(-c2nc(Nc3ccccc3)nc(-n3nc(C)cc3C)n2)n1	-4%
CN(C)C(=O)C1CCN(Cc2c[nH]c3ccccc23)CC1	6%[11.4 µM]
N#Cc1cc2c(nc1SCc1cccnc1)CCC2	3%
CCSc1nnc(NC(=O)c2nn(C(C)C)c(=O)c3ccccc23)s1	3%
Clc1ccc(-c2nnc(SCc3nc(-c4ccccc4)no3)o2)cc1	5%
CCOC(=O)C1CCCN(C(=O)c2cn(CC)c3ccc(S(=O)(=O)N(C)C)cc3c2=O)C1 (stereo unspecified)	-9%
Cc1ccc(NS(=O)(=O)c2cccc(C(=O)OCC(=O)NCc3ccco3)c2)cc1	-8%
NC(=O)c1cnn(Cc2ccc(Cl)cc2)c1N	4%
O=C(O)CNC(=O)c1ccc([N+](=O)[O-])cc1	?
CC(=O)NCCSCCNC(C)=O	8%
NC(=O)C1CC=CCC1C(=O)OCC(Cl)=C(Cl)Cl (stereo unspecified)	2%
CN(C)c1ccc(C(=O)Nc2ccc(S(=O)(=O)NC3=NCCCCC3)cc2)cc1	?
Cc1ccc(-c2nn(-c3ccccc3)cc2C2SCC(=O)N2Cc2ccccc2)o1 (stereo unspecified)	-26%
CCOC(=O)C1=C(C)N(c2nonc2NC(C)=O)C(N)=C(C#N)C1c1ccccc1F (stereo unspecified)	7%
